Sa growth inh = S. aureus growth inhibition at 42 and 30 °C, primary screen, LtaS inhibitor project, RN4220, two temperatures | OD600, 20 h, 42 °C; stronger effect = lower value | relative growth, % (no concentration beside the values) | 170,000 compounds, 0.53% hits | AID 720641, 2013;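 active = growth at 42 °C up to 50% and 20 or more points under that at 30 °C, or under 10% at both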;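 also: 300 nL library stock went into each well; scaled to the means of positive and negative controls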
GIV Gai3 FP = inhibitors of GIV peptide binding to Galpha-i3, primary screen, biochemical, fluorescence polarization, FITC-GIV GBA peptide, rat Galphai3. 90 min; stronger effect = lower value; scaled: aluminum fluoride 0%, vehicle 100%. percent of control (FP), % (test concentration not listed). 210,000 compounds, 0.42% hits. AID 1224905, 2016;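 active = replicate mean at 85% of control or lower, very high polarization wells dropped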;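 also: wells of about 15 µL received 100 nL stock; the first replicate is given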
Target sequence (P08753 whole entry, looked up): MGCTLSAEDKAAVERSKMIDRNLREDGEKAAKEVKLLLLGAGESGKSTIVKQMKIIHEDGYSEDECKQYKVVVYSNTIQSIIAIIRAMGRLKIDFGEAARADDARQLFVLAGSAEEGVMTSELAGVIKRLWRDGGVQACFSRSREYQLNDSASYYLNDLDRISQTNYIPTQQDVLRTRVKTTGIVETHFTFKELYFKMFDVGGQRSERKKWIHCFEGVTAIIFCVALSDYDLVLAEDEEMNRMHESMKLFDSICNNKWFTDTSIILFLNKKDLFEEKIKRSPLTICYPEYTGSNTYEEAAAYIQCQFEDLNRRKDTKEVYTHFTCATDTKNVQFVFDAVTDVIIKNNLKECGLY
HCMV NEC inh = inhibitors of HCMV UL50-UL53 interaction, biochemical, HTRF; HCMV UL50-UL53 nuclear egress complex (human cytomegalovirus); normalized percent inhibition; inhibition, % (test concentration not listed); 190,000 compounds, 0.15% hits; AID 1918969, 2023;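 active = both replicates at 50% or more, plus weaker picks with an unusually low signal ratio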;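 also: stock transfer was 100 nL into about 20 µL; 0% = negative control wells and 100% = wells with untagged competitor protein; inactives centre near -12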
Sa growth inh second temp = also measured in Sa growth inh; calls as there; relative growth, %; measured here: growth at 30 °C;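 optical density after 20 h as mean of two plates; 100% = untreated growth and lower means inhibition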
Active calls of the source: *; & = joins results of further samples.

For CN(C)c1ccc(NS(=O)(=O)C2CCS(=O)(=O)C2)cc1 (stereo unspecified) the results were GIV Gai3 FP 106 and HCMV NEC inh -21.
`CCN1CCCC1CNC(C)C(=O)NC1CCCC1` (stereo unspecified) gave Sa growth inh 89, HCMV NEC inh -33 and Sa growth inh second temp 97.
For CSc1cccc(NC(N)=O)c1 the results were Sa growth inh 116, GIV Gai3 FP 104, HCMV NEC inh -24 and Sa growth inh second temp 89.
CC1=C(C(=O)N2CCN(c3cccc(C(F)(F)F)c3)CC2)C2(CCCCC2)OC1=O was read as Sa growth inh 107, GIV Gai3 FP 110, HCMV NEC inh 2 and Sa growth inh second temp 105.
Screening CC1(C)OC(=O)C(=C2CCCCCN2)C(=O)O1 returned Sa growth inh 102, GIV Gai3 FP 95, HCMV NEC inh 9 and Sa growth inh second temp 80.
COc1cc(CN(C(=O)c2ccccc2)c2ccccn2)cc(OC)c1OC was read as Sa growth inh 98, GIV Gai3 FP 104, HCMV NEC inh -26 and Sa growth inh second temp 85.
CCC(C)Cn1c(Cc2ccc(OC)cc2)nc2ccccc21 (stereo unspecified) was read as Sa growth inh 48, GIV Gai3 FP 99 and Sa growth inh second temp 39.
CCOC(=O)CNS(=O)(=O)c1cc(-c2nnc(Nc3cccc(O)c3)c3ccccc23)ccc1C was read as Sa growth inh 82, GIV Gai3 FP 105, HCMV NEC inh -59 and Sa growth inh second temp 54.
For Cc1[nH]c(=O)[nH]c(=O)c1Cc1cccc2ccccc12 the results were Sa growth inh 106, GIV Gai3 FP 99, HCMV NEC inh -4 and Sa growth inh second temp 105.
Screening O=C(OC(C(=O)c1ccccc1)c1ccccc1)c1cccc(O)c1 (stereo unspecified) returned Sa growth inh 94, HCMV NEC inh -39 and Sa growth inh second temp 64.
`Cc1ccc(-c2cc3ncc(C(=O)c4cc([N+](=O)[O-])ccc4O)cn3n2)cc1` gave Sa growth inh 76, GIV Gai3 FP 103, HCMV NEC inh -48 and Sa growth inh second temp 42.
For O=C(CSc1nnc(C2CC2)n1C1CC1)c1cc(Cl)sc1Cl the results were Sa growth inh 70, HCMV NEC inh -48 and Sa growth inh second temp 43.
`O=C1CCC(N2C(=O)c3ccccc3C2=O)C(=O)N1` (stereo unspecified) gave Sa growth inh 99&89, GIV Gai3 FP 108&104, HCMV NEC inh -20&-69&-12&-8&-35&-33&-33&-31 and Sa growth inh second temp 95&86.
Screening CCCn1c2ccccc2c2nnc(SCC(=O)NC3CCCC3)nc21 returned Sa growth inh 94, GIV Gai3 FP 100, HCMV NEC inh 7 and Sa growth inh second temp 101.
COCC(C)n1c(=S)nnc2c3ccccc3[nH]c21 (stereo unspecified) was read as Sa growth inh 83, HCMV NEC inh -35 and Sa growth inh second temp 82.
For NCc1nc2ccccc2c(=O)[nH]1 the results were Sa growth inh 119, HCMV NEC inh 2 and Sa growth inh second temp 93.
For CCC(=O)N1CCc2cc(CNC(=O)Nc3cc(OC)c(OC)c(OC)c3)ccc21 the results were Sa growth inh 106, GIV Gai3 FP 102 and Sa growth inh second temp 99.
For COc1ccccc1CN=C1NC(=O)C(CC(=O)Nc2ccc(OC)c(OC)c2)S1 (stereo unspecified) the results were Sa growth inh 113, HCMV NEC inh 1 and Sa growth inh second temp 89.
For CCOc1ccccc1NC(=O)N1Cc2c(sc3c2CCN(C)C3)-n2cccc2C1CC (stereo unspecified) the results were GIV Gai3 FP 107 and HCMV NEC inh -24.
`CCN(CC)c1nc2ccccc2n1Cc1ccc(Cl)cc1` gave Sa growth inh 31, HCMV NEC inh -7 and Sa growth inh second temp 36.
Cc1cccc(-c2nc(Cn3nc(C)c4c(C)onc4c3=O)c(C)o2)c1 was read as GIV Gai3 FP 116 and HCMV NEC inh -37.
For CCOC(=O)c1cccc2c1-c1ccccc1/C2=N/O the results were Sa growth inh 44*, GIV Gai3 FP 99 and Sa growth inh second temp 67*.
O=C(CN1C(=O)COc2ccc(S(=O)(=O)N3CCCCC3)cc21)NCCc1ccc(Cl)cc1 was read as Sa growth inh 130, GIV Gai3 FP 105 and Sa growth inh second temp 83.
Screening Nc1ccc(S(=O)(=O)c2ccccc2)c(Cl)c1 returned Sa growth inh 91, GIV Gai3 FP 95, HCMV NEC inh -9 and Sa growth inh second temp 85.
Cc1cn(CC(=O)O)c(=O)c2ccccc12 was read as GIV Gai3 FP 102 and HCMV NEC inh -11.
`Cc1ccccc1CCNCc1c(C(=O)O)c(C)n(Cc2c(F)cccc2Cl)c1C` gave Sa growth inh 109, GIV Gai3 FP 102, HCMV NEC inh -6 and Sa growth inh second temp 89.
CC1=C(c2ccccc2)S(=O)(=O)NC1=NCCCN1CC(C)CC(C)C1 (stereo unspecified) was read as Sa growth inh 92, GIV Gai3 FP 100, HCMV NEC inh -14 and Sa growth inh second temp 85.
Screening CCC(Sc1nnc2c3ccccc3n(C)c2n1)C(=O)Nc1ccc(Cl)cn1 (stereo unspecified) returned Sa growth inh 99, GIV Gai3 FP 97, HCMV NEC inh -8 and Sa growth inh second temp 81.
For O=C(CCCc1nnc2c(=O)n(-c3ccc(Cl)cc3)ccn12)N1CCN(c2ccccn2)CC1 the results were GIV Gai3 FP 106 and HCMV NEC inh -8.
`O=C(O)C1CCCN1c1ncnc2ccccc12` (stereo unspecified) gave Sa growth inh 94, HCMV NEC inh -8 and Sa growth inh second temp 86.
`CCc1nn(CC(=O)NCCc2ccc(OC)cc2OC)c(=O)c2cc3sc(C)cc3n12` gave Sa growth inh 101, GIV Gai3 FP 100, HCMV NEC inh -10 and Sa growth inh second temp 95.
`Cc1cc(-c2ccccc2)oc2cc3ccccc3c1-2` gave Sa growth inh 102, GIV Gai3 FP 104, HCMV NEC inh -26 and Sa growth inh second temp 88.
`O=C(Nc1ccccc1)c1ccccc1OCc1nc(-c2ccccc2)no1` gave GIV Gai3 FP 109 and HCMV NEC inh -22.
Screening Cc1cccc(Cn2cnc3c(oc4ccccc43)c2=O)c1 returned Sa growth inh 116, GIV Gai3 FP 107&107, HCMV NEC inh -4 and Sa growth inh second temp 94.
Screening O=C(CCCCc1nc2ccccc2s1)Nc1ccccc1 returned Sa growth inh 101, HCMV NEC inh -17 and Sa growth inh second temp 88.
CCc1ccc(CNC(=O)c2nn(-c3ccc(C)c(C)c3)nc2CO)cc1 was read as Sa growth inh 108, GIV Gai3 FP 99, HCMV NEC inh 10 and Sa growth inh second temp 101.
`CC(C)(C)C1CCc2c(sc3nc(CCC(=O)Nc4ccccc4)[nH]c(=O)c23)C1` (stereo unspecified) gave GIV Gai3 FP 96 and HCMV NEC inh 6.
Screening COc1ccccc1N1CCN(c2ncc(C(=O)Nc3cc(OC)c(OC)c(OC)c3)c3ccccc23)CC1 returned Sa growth inh 100, GIV Gai3 FP 97, HCMV NEC inh -6 and Sa growth inh second temp 90.
COc1ccc(CNC(=O)c2nn(C)c3c2CSc2ccccc2-3)cc1 was read as Sa growth inh 117, GIV Gai3 FP 101, HCMV NEC inh -23 and Sa growth inh second temp 88.
Cc1ccc(-c2nc(-c3cc4cccc(OCc5cccc(C)c5)c4oc3=O)no2)cc1 was read as Sa growth inh 81, GIV Gai3 FP 187, HCMV NEC inh -28 and Sa growth inh second temp 70.
Cn1nc(C(=O)N2CCN(c3ccccc3F)CC2)c2c1-c1ccccc1S(=O)(=O)C2 was read as Sa growth inh 132, GIV Gai3 FP 101, HCMV NEC inh -17 and Sa growth inh second temp 92.
`COc1ccccc1C(=O)Nc1c2c(nn1-c1ccc(Oc3ccccc3)cc1)CSC2` gave Sa growth inh 109, GIV Gai3 FP 101 and Sa growth inh second temp 96.
Screening Cc1cc(C)cc(NC(=O)C(=O)NCCc2sc(-c3cccc(F)c3)nc2C)c1 returned Sa growth inh 93, GIV Gai3 FP 108 and Sa growth inh second temp 93.
Screening N#CC1=C(N2CCCCC2)c2cc3c(n2C1=O)CCCC3 returned Sa growth inh 94, HCMV NEC inh -69 and Sa growth inh second temp 58.
For Cc1ccc(-c2nc3ccccc3o2)cc1NC(=O)c1cccc2c(Cl)cccc12 the results were Sa growth inh 93, GIV Gai3 FP 109, HCMV NEC inh -31 and Sa growth inh second temp 88.
For Cc1ccc(NC(=O)COc2ccc3oc4c(c3c2)CCCC4)c(C)c1 the results were Sa growth inh 104, GIV Gai3 FP 102, HCMV NEC inh -28 and Sa growth inh second temp 85.
`Cc1cc(C(=O)CSc2nncn2C)c(C)n1CCc1ccc(Cl)cc1` gave Sa growth inh 85, HCMV NEC inh 3 and Sa growth inh second temp 90.
For Cc1ccc(CCNC(=O)CN(c2ccc(C)cc2)S(=O)(=O)c2c(C)noc2C)cc1 the results were Sa growth inh 99, GIV Gai3 FP 98, HCMV NEC inh -21 and Sa growth inh second temp 87.

Fetched one by one from above, five records:
`CC(C)(C)C1CCc2c(sc3nc(CCC(=O)Nc4ccccc4)[nH]c(=O)c23)C1` (stereo unspecified) gave GIV Gai3 FP 96 and HCMV NEC inh 6.
Screening COc1ccccc1N1CCN(c2ncc(C(=O)Nc3cc(OC)c(OC)c(OC)c3)c3ccccc23)CC1 returned Sa growth inh 100, GIV Gai3 FP 97, HCMV NEC inh -6 and Sa growth inh second temp 90.
`COc1ccccc1C(=O)Nc1c2c(nn1-c1ccc(Oc3ccccc3)cc1)CSC2` gave Sa growth inh 109, GIV Gai3 FP 101 and Sa growth inh second temp 96.
For Cc1ccc(-c2nc3ccccc3o2)cc1NC(=O)c1cccc2c(Cl)cccc12 the results were Sa growth inh 93, GIV Gai3 FP 109, HCMV NEC inh -31 and Sa growth inh second temp 88.
For Cc1ccc(NC(=O)COc2ccc3oc4c(c3c2)CCCC4)c(C)c1 the results were Sa growth inh 104, GIV Gai3 FP 102, HCMV NEC inh -28 and Sa growth inh second temp 85.

Next results follow:
For O=C(CN1C(=O)COc2ccccc2C1=O)c1ccc(Br)cc1 the results were GIV Gai3 FP 101 and HCMV NEC inh 4.
`CCCN1CCN(C(=O)C2CCCN(S(=O)(=O)c3cn(C(C)C)cn3)C2)CC1` (stereo unspecified) gave GIV Gai3 FP 102 and HCMV NEC inh -20.
Cc1cccc(OC(C)C(=O)N(Cc2ccccc2)C2CCS(=O)(=O)C2)c1C (stereo unspecified) was read as GIV Gai3 FP 106 and HCMV NEC inh -2.
For CCN(CC)S(=O)(=O)c1ccc(C(=O)Nc2ccccc2Cl)cc1 the results were Sa growth inh 94, HCMV NEC inh -8 and Sa growth inh second temp 88.
Screening CC1CCCCN1C(=O)CCS(=O)(=O)c1ccc2c(c1)NC(=O)CO2 (stereo unspecified) returned Sa growth inh 87, GIV Gai3 FP 96, HCMV NEC inh -24 and Sa growth inh second temp 76.
For CCOC(=O)c1c(NC(=O)CSc2nnc(-c3cccnc3)n2N)sc(C(=O)N(C)C)c1C the results were Sa growth inh 80, HCMV NEC inh -4 and Sa growth inh second temp 88.
`CCOc1cc(-c2noc(-c3ccccc3)n2)ccc1OCC(=O)Nc1nccs1` gave GIV Gai3 FP 105 and HCMV NEC inh 0.
`COc1cc(C2C3=C(CC(C)(C)CC3=O)OC3=C2C(=O)CC(C)(C)C3)c(Br)cc1OCC(=O)O` gave GIV Gai3 FP 101 and HCMV NEC inh -36.
For Cc1cc(/C=N/NC(=S)NC(C)C)c(C)n1CC(C)C the results were Sa growth inh 80, HCMV NEC inh -18 and Sa growth inh second temp 83.
C=CCNC(=O)C(C)N1c2cccc3cccc(c23)S1(=O)=O (stereo unspecified) was read as Sa growth inh 112, GIV Gai3 FP 97 and Sa growth inh second temp 83.
`Cc1nc2ccccc2n1CCNC(=O)NC1CCCCC1` gave Sa growth inh 114, HCMV NEC inh -4 and Sa growth inh second temp 95.
Screening Cc1cc2nc(N)nc(N)n2n1 returned Sa growth inh 99, GIV Gai3 FP 107, HCMV NEC inh -14 and Sa growth inh second temp 90.
`COc1ccc2c(c1)-c1nc(NC(=O)c3ccccc3F)sc1CC2` gave Sa growth inh 100, GIV Gai3 FP 109, HCMV NEC inh -11 and Sa growth inh second temp 91.
COc1ccc(/C=C2\Sc3ccccc3NC2=O)cc1 was read as Sa growth inh 79, GIV Gai3 FP 103 and Sa growth inh second temp 79.
For COCCN=Cc1c(NCCOC)nc2ccccn2c1=O the results were Sa growth inh 106, GIV Gai3 FP 102, HCMV NEC inh -48 and Sa growth inh second temp 78.
Screening COc1ccc(NC(=O)C2=CC(c3cccc(OC)c3)=NS(=O)(=O)N2C)cc1 returned Sa growth inh 78, GIV Gai3 FP 103, HCMV NEC inh -50 and Sa growth inh second temp 74.
For Cc1cc(=O)n(CC(=O)N2CCN(c3ccccc3F)CC2)c2c1c(C)nn2C the results were Sa growth inh 84, GIV Gai3 FP 100 and Sa growth inh second temp 89.
C=CCC(Nc1ccccc1C)c1ccc(Cl)cc1 (stereo unspecified) was read as Sa growth inh 86, GIV Gai3 FP 103 and Sa growth inh second temp 86.
